High-throughput results as filed in PubChem.
PINK1 expr mod: A Quantitative High throughput Screen to Identify Chemical Modulators of PINK1 Expression | PINK1 immunofluorescence, high-content cytometry, 24 h | Potency, µM (titrated, usually from 76.6 µM), inactives show top-dose activation (PINK1 increase), usual class: activators | 410,000 compounds, 0.2% hits | AID 624263, 2012; active = well fitted activation curve with a large enough effect; inconclusive = small, poorly fitted or top-dose-only effect; inactive = flat fitted curve, though single readings scatter; cell line not stated here;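 further: potency means the concentration at half of the fitted maximal effect; % of control where 0% means no effect; nearly all actives have a fitted effect of over 65% in size; a mitochondrial uncoupler was the plate control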
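PINK1 protein, normally rapidly degraded, was detected by immunofluorescence after 24 hour compound treatment of a stable cell line. Titration data (5 concentrations) came from laser-scanning cytometry, with CCCP-treated wells as controls.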
Sfp PPTase inh: qHTS Assay for Inhibitors of Bacillus subtilis Sfp phosphopantetheinyl transferase (PPTase); Biochemical Sfp PPTase activity, qHTS; Potency, µM, for the others: max response, negative = inhibition, most hits filed as inhibitors; 310,000 compounds, 3.5% hits; AID 1490, 2009; active means well fitted inhibition curve with a large enough effect; inconclusive means small, poorly fitted or top-dose-only effect, or another doubt; inactive means no such curve, though single readings can be large or run the other way;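 further: the enzyme is Sfp with the accession as filed and its product quenches rhodamine fluorescence; potency means the concentration at half of the fitted maximal effect; 0% = enzyme reaction without inhibitor and -100% = no enzyme wells; top concentration of the series not given in the record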
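After 15 min at room temperature with compound, 15 nM Sfp received 5 uM rhodamine-CoA plus 12.5 uM BHQ-2-ybbR (50 mM Hepes pH 7.6, 10 mM MgCl2). Rate came from the fluorescence difference over 30 min, ex 525/em 598 nm.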
Six1-Eya2 blk: qHTS Assay for Inhibitors of the Six1/Eya2 Interaction; AlphaScreen GST-Six1/His-Eya2 binding, biochemical; active compounds read low; control for the full effect not named in the record; AID 651725, 2012; activity change, % (concentration not given with the values); 360,000 compounds, 0.56% hits; in the data active = activity change below about -65%; inconclusive = about -30% to -65%; inactive = above about -30%; further: on the % scale 0 is the no-effect control and ±100 the full control effect
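Homogeneous AlphaScreen proximity assay pairing GST-Six1 with His-tagged Eya2 (added as 5X mix: 250 nM and 500 nM) in 50 mM Tris pH 8.0, 300 mM NaCl, 1 mM TCEP. Glutathione donor and nickel acceptor beads; 1 h, 37 °C, dark.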
TRPV1 PAM: HTS Assay for Compounds that Act as Potentiators of the Vanilloid Receptor 1 | Transient receptor potential cation channel subfamily V member 1 (Homo sapiens), Q8NER1 | potentiation, % at 8.33 µM | AID 540277, 2011 | 320,000 compounds, 0.02% hits | TRPV1-expressing cells, Fluo-8 calcium influx, capsaicin EC20 potentiation; host cell line not named in the record; control for the full effect not named in the record; active means potentiation above 80%; inconclusive means 30% to 80%; inactive means below 30%; further: 0% is about no effect
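Fluo-8 calcium influx in TRPV1-expressing cells, kinetic read (ex 480/em 520 nm). Compound added and read 3 min for agonist activity, followed by capsaicin at EC20 final and 2 min further read for enhancement.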
CtBP-E1A inh: qHTS Assay for Inhibitors of the CtBP/E1A Interaction; AlphaScreen GST-E1A/His-CtBP binding, 1536-well; active compounds read low; control for the full effect not named in the record; 340,000 compounds, 0.49% hits; CtBP / adenovirus E1A interaction (AlphaScreen); activity change, % (test concentration not listed); in the data active means activity change below about -65%; inconclusive means about -30% to -65%; inactive means above about -30%; further: on the % scale 0 is the no-effect control and ±100 the full control effect
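In 5 uL wells, 23 nL compound meets equimolar GST-E1A and His-CtBP (5X stock 125 nM each) for 2 h, 37 °C. Beads (5X, 50 ug/mL) then 1 h, 37 °C, dark.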
D2 PAM: Beta-Arrestin HTS for Positive Allosteric Modulators of the Human D2 Dopamine Receptor: Potentiators. D(2) dopamine receptor (Homo sapiens), P14416. 360,000 compounds, 0.23% hits. DiscoveRx D2 beta-arrestin cells, luminescence, 90 min; 100% = 57 uM dopamine signal. potentiation, % (test concentration not listed); active = potentiation of 50% or more; inconclusive = 30% to 50%; inactive = 30% or less;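 further: compound concentration not given in the record; tested on top of an EC20 dose of dopamine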
Target sequence (P14416 whole entry, looked up): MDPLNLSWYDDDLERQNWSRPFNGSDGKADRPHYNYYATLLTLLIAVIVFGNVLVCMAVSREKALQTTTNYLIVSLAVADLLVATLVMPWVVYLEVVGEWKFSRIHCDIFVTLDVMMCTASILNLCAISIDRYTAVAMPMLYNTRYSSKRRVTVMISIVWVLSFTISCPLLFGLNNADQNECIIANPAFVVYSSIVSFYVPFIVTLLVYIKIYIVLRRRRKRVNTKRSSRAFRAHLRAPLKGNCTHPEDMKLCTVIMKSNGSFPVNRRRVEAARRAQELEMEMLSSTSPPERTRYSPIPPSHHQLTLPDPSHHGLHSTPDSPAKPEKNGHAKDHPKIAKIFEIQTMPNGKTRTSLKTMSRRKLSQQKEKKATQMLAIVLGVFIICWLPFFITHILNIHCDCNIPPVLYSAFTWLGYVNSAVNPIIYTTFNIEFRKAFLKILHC
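PathHunter D2 cells, attached overnight at 37 deg C, received compound in DMSO plus dopamine at EC20 (50 nM final) for 90 min at 37 deg C. Beta-arrestin recruitment was read as luminescence after 1 h with detection reagent at ambient temperature.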
D2 ag: Beta-Arrestin HTS for Positive Allosteric Modulators of the Human D2 Dopamine Receptor: Agonists; D(2) dopamine receptor (Homo sapiens), P14416; DiscoveRx PathHunter D2 beta-arrestin, luminescence, 90 min; 100% = 57 uM dopamine signal; activation, % (no concentration beside the values); 360,000 compounds, 0.084% hits; AID 624465, 2012; in the data active = activation above about 40%; inconclusive = about 15% to 40%; inactive = below about 15%; further: compound concentration not given in the record; the text of the record calls up to 30% inactive
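Agonist mode: compounds alone added to overnight-plated D2 PathHunter cells for 90 min at 37 C, with 57 uM final dopamine (EC100) defining full response. Beta-arrestin recruitment detected by chemiluminescent reagent, read after 1 h at ambient temperature.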
* marks the source's active call; other numbers are inactive results; ? = inconclusive; nt = not tested or not shown; & = joins results of further samples; [ ] = another dose, or the depositor's remark.

SMILES | PINK1 expr mod | Sfp PPTase inh | Six1-Eya2 blk | TRPV1 PAM | CtBP-E1A inh | D2 PAM | D2 ag
O=S(=O)(Nc1ccc(-c2cn3c(n2)SCC3)cc1)c1ccccc1F | 0.4% | -4% | -4 | -3 | -15 | -5 | 2.6
CC(=O)Nc1ccc(S(=O)(=O)N(C)CC(=O)OC2CCCCC2=O)cc1 (stereo not given) | 1.5% | nt | 3 | 2 | 1 | -12 | 0.1
S=C(Nc1ccc(Cl)cc1Cl)NC1CCCCC1 | 1.7% | 9% | 0 | -7 | 2 | -6 | -1.8
CCCNC(=O)C1(C)CCN(C(=O)c2ccccc2OC)C1 (stereo not given) | 1.6% | nt | 4 | nt | 3 | -10 | -6.1
COc1ccccc1C(=O)N1CCN(C(=O)c2oc3c(C)c(C)ccc3c2C)CC1 | 2.9% | nt | -4 | nt | -5 | -12 | 3.1
CC1Cc2ccccc2N1C(=O)CN(C)CC(=O)Nc1ccc(OC(F)(F)F)cc1 (stereo not given) | 15% | nt | -6 | 2 | 9 | -6 | 1.1
Cc1ccn2cc(CCNS(=O)(=O)c3ccc4ccccc4c3)nc2c1 | 0.8% | nt | -6 | nt | 9 | -5 | 3.9
O=C1c2ccccc2C(=O)C12OC(c1ccccc1)C1(C(=O)c3ccccc3C1=O)C2c1ccc([N+](=O)[O-])cc1 (stereo not given) | -0.4% | nt | 3 | nt | 0 | 3 | 3.5
C=CCn1c(SCC(=O)Nc2cc(NC(C)=O)ccc2OC)nnc1-c1cccnc1 | 8.0%[38.3 µM] | 8% | 4 | ? | -1 | -4 | -3.6
O=[N+]([O-])c1ccccc1S(=O)(=O)Nc1ncccn1 | -0.6% | 16% | -19 | 8 | -13 | -7 | 3.8
Cc1ccc(C)c(S(=O)(=O)N2CCN(C(=O)c3ccncc3)CC2)c1 | 2.5% | nt | 6 | ? | 8 | -12 | -2.1
O=C(NCc1cccs1)c1cccc2c(-c3ccc(F)c(F)c3)coc12 | -0.9% | nt | -1 | nt | 2 | -15 | -2.6
Cc1ccc(C(=O)OCC(=O)N2CC(C)OC(C)C2)cc1 (stereo not given) | -1.1% | 5% | 13 | -1 | 2 | -2 | -3.1
COc1cccc(NC(=O)CN2CCN(CC(=O)Nc3ccc(F)cc3)CC2)c1 | 1.2% | 2% | -5 | 25 | 7 | 1 | -5.1
O=C1CCCC(=O)C1=C1SCCCS1 | -1.6% | 13% | 18 | 13 | 19 | 9 | 5.8
Cc1oc2cc(OC(C)C(=O)O)ccc2c(=O)c1Oc1ccccc1 (stereo not given) | 0.6% | 4% | 3 | -14 | 5 | -2 | -4.7
CN(C)/C=C(\C#N)C(=O)c1cccnc1Oc1cccc(F)c1 | 9.4%[38.3 µM] | 19% | 0 | 2 | 1 | -5 | -0.6
C/C(=N/OC(=O)c1c(-c2ccccc2Cl)noc1C)c1cnccn1 | -0.1% | 7% | 18 | -5 | 0 | 3 | 2.4
NC(Cc1ccc(C(F)(F)F)cc1)c1csc(Nc2ccccn2)n1 (stereo not given) | 2.6% | nt | 0 | nt | -8 | -16 | 2.5
CCN(CC(=O)NCc1ccc(F)cc1)C(=O)c1cc2ccccc2o1 | 1.2% | 17% | 5 | 11 | 9 | -3 | -4.3

A stretch from the list above, for reference:
SMILES | PINK1 expr mod | Sfp PPTase inh | Six1-Eya2 blk | TRPV1 PAM | CtBP-E1A inh | D2 PAM | D2 ag
Cc1ccc(C(=O)OCC(=O)N2CC(C)OC(C)C2)cc1 (stereo not given) | -1.1% | 5% | 13 | -1 | 2 | -2 | -3.1
COc1cccc(NC(=O)CN2CCN(CC(=O)Nc3ccc(F)cc3)CC2)c1 | 1.2% | 2% | -5 | 25 | 7 | 1 | -5.1
O=C1CCCC(=O)C1=C1SCCCS1 | -1.6% | 13% | 18 | 13 | 19 | 9 | 5.8
Cc1oc2cc(OC(C)C(=O)O)ccc2c(=O)c1Oc1ccccc1 (stereo not given) | 0.6% | 4% | 3 | -14 | 5 | -2 | -4.7
CN(C)/C=C(\C#N)C(=O)c1cccnc1Oc1cccc(F)c1 | 9.4%[38.3 µM] | 19% | 0 | 2 | 1 | -5 | -0.6
C/C(=N/OC(=O)c1c(-c2ccccc2Cl)noc1C)c1cnccn1 | -0.1% | 7% | 18 | -5 | 0 | 3 | 2.4
NC(Cc1ccc(C(F)(F)F)cc1)c1csc(Nc2ccccn2)n1 (stereo not given) | 2.6% | nt | 0 | nt | -8 | -16 | 2.5
CCN(CC(=O)NCc1ccc(F)cc1)C(=O)c1cc2ccccc2o1 | 1.2% | 17% | 5 | 11 | 9 | -3 | -4.3

Further entries follow:
SMILES | PINK1 expr mod | Sfp PPTase inh | Six1-Eya2 blk | TRPV1 PAM | CtBP-E1A inh | D2 PAM | D2 ag
CC(=O)Nc1ccc(S(=O)(=O)Nc2ccc3c(c2)OCCO3)cc1 | 1.1% | 5% | 7 | 2 | 9 | 3 | 3.3
O=C(COC(=O)c1ccncc1)Nc1cc(Cl)ccc1Cl | ? | 4% | -2 | 21 | -1 | -4 | 0.0
Cc1c(Cl)cccc1NC(CC(=O)c1ccccc1)C(=O)O (stereo not given) | 0.1% | 7.9µM* | ? | 7 | -4 | -1 | 3.1
CCSc1nnc(NC(=O)CSc2c(Cl)cccc2Cl)s1 | 2.4% | -21% | -1 | 10 | 2 | -26 | -0.6
CCCCCC(=O)N1C[C@@H](O)[C@H](n2cc(C3CC3)nn2)C[C@@H]1c1ccc(C)cc1 | 5.2% | nt | 2 | nt | 4 | -2 | -1.3
COc1ccc(-n2c(Cc3cccn3C)nnc2SCC(=O)Nc2ccc(F)cc2)cc1 | -3.4% | -16% | -19 | 1 | -5 | 2 | 0.7
O=C(NC1CC1)c1ccc(CSCc2ccccc2Cl)o1 | 0.3% | 6% | 3 | -10 | nt | -8 | 6.7
CCc1nnc(NC(=O)CSc2nnc(CNc3ccc(OC)cc3)n2C)s1 | -0.4% | 9% | -9 | 2 | 1 | -2 | -3.7
Cc1ccc(S(=O)(=O)N(C)C[C@H]2Oc3cc(Br)ccc3S(=O)(=O)N([C@H](C)CO)C[C@H]2C)cc1 | -0.6% | nt | -14 | nt | -2 | -2 | 0.6
Cc1cc(=O)oc2cc(OCc3ccc(C(=O)OCC(=O)Nc4ccc(N(C)C)cc4)cc3)ccc12 | 0.3% | -20% | 2 | -1 | 2 | -1 | 4.5
CC1CC(C)CN(C(=S)Nc2ccc3nc4n(c(=O)c3c2)CCCCC4)C1 (stereo not given) | 5.6% | 11% | -16 | 9 | -1 | -12 | -1.6
Cn1c(COc2ccccc2)nc2ccccc21 | 0.8% | 9% | -7 | 23 | 6 | -5 | -1.8
Cc1ccc(-c2cc(C(F)(F)F)nn2-c2ccc(S(N)(=O)=O)cc2)cc1 | 2.4% | 14%&19%&15% | 0 | 17 | -25 | 16 | -1.0
O=C(CN1C(=O)NC2(CCCC2)C1=O)Nc1ccccc1N1CCCCC1 | 0.7% | nt | 2 | 21 | 0 | -2 | 0.4
CCOC(=O)C1(C)CCCCCN1C(=O)c1ccc(SC(F)(F)F)cc1 (stereo not given) | -0.7% | nt | -1 | nt | 1 | -8 | -3.8
O=Cc1cn(CCOc2ccc(F)cc2)c2ccccc12 | -1.2% | nt | 10 | nt | 0 | -14 | -0.3
Cc1cc(C)c(C(=O)CN2C(=O)NC3(CCC(C)CC3)C2=O)cc1C (stereo not given) | 7.7% | 14% | 12 | 6 | -3 | 0 | -4.2
Cc1onc(-c2ccc(Cl)cc2Cl)c1-c1csc(COc2ccccc2)n1 | 5.6% | 6% | 23 | nt | -5 | -30 | -4.2
CC(=O)c1ccsc1-c1c(C)cc2oc(=O)cc(-c3ccccc3)c2c1C | 1.1% | ? | -8 | nt | -1 | nt | 1.5
CCOC(=O)c1c(C)[nH]c(C(=O)COC(=O)c2cc(C)oc2C)c1C | 1.4% | nt | 1 | 11 | 1 | 1 | 5.4
COC(=O)C1(C)NC(c2cccs2)C2C(=O)N(c3ccccc3F)C(=O)C21 (stereo not given) | 0.7% | 13% | -1 | 0 | 8 | -6 | -4.5
CCOc1ncccc1C(=O)OCc1cccc([N+](=O)[O-])c1 | 0.8% | -3% | -1 | -1 | -3 | 2 | -1.2
CN1C(=O)c2ccc(NC(=O)c3cccc4ccccc34)cc2C1=O | 5.8% | -5% | 33 | 1 | -18 | -2 | 6.7
O=C(CN1CCN(c2ccc(Cl)cc2)CC1)c1ccc2c(c1)OCO2 | -0.6% | -23% | -9 | 2 | -6 | -32 | -4.5
Cc1cccc(NC(=O)C2CCCN(C(=O)Nc3ccc(F)cc3)C2)c1 (stereo not given) | 0.8% | 15% | 1 | -4 | 2 | -20 | -4.0
CCC1CCCCN1Cc1ccc(OC)c(C)c1 (stereo not given) | 1.8%[38.3 µM] | -14% | 5 | -1 | 7 | -14 | 3.5
CCN(C(=O)CN1C(=O)NC(c2ccccc2)(c2ccc(C)c(C)c2)C1=O)C1CCCCC1 (stereo not given) | -1.8% | nt | -8 | 3 | -9 | -3 | -2.9
Cc1ccc(-n2cnc3c(sc4nc(N5CCOCC5)c5c(c43)CCCC5)c2=O)cc1 | 1.5% | 8% | 7 | -29 | 10 | -6 | -3.8
COc1c2c(nc3occc13)C(CC=C(C)C)(OC)C(OC(C)=O)CC2 (stereo not given) | 0.8% | 17% | 2 | 14 | 4 | 5 | -1.3
CCNS(=O)(=O)c1ccc(CCC(N)=O)cc1 | -0.5% | 26% | -7 | 2 | -7 | 0 | -3.1
Cc1ccc(NC(=O)CCS(=O)(=O)c2ccc3c(c2)NC(=O)C(C)S3)cc1Cl (stereo not given) | 0.4% | 7% | -5 | ? | -16 | -5 | -1.5
COc1cccc(CN(C)CC(=O)NNC(=O)c2ccc(Cl)cc2)c1 | -2.5% | 4% | -1 | -4 | 2 | -13 | -2.0
